Screens from PubChem.
Mtb bLac sens: beta-lactam sensitization of Mtb H37Rv. 330,000 compounds, 0.27% hits. inhibition, % at 25 µM. AID 434955. M. tuberculosis H37Rv growth with meropenem, percent inhibition; hits of this screen are not shown here;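 active = about 74% or more and at least 40 points above the plate without the antibiotic, then above 30% in a dose series; inconclusive = first-round hits that could not be retested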;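 note: growth measured after seven days incubation then overnight dye step; 0% = bacteria only wells and 100% = bacteria with antibiotic; twin plates without the antibiotic show which effects depend on it; some results filed as inactive read as strong as hits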
Active calls of the source: *; ? = inconclusive.

Preview (three entries):
smiles	Mtb bLac sens
CC(C)C(NC(=O)c1ccco1)C(=O)OCC(=O)NCCc1ccccc1 (stereo not drawn)	3
O=C(COC(=O)c1ccc(C(F)(F)F)cc1)Nc1cccc(S(=O)(=O)N2CCCCC2)c1	4
Cc1ccc(NC(=O)[C@@H]2CCCN2S(=O)(=O)c2ccc(Cl)cc2)cc1	-6

All compounds of this part, from the first entry:
smiles	Mtb bLac sens
CC(C)C(NC(=O)c1ccco1)C(=O)OCC(=O)NCCc1ccccc1 (stereo not drawn)	3
O=C(COC(=O)c1ccc(C(F)(F)F)cc1)Nc1cccc(S(=O)(=O)N2CCCCC2)c1	4
Cc1ccc(NC(=O)[C@@H]2CCCN2S(=O)(=O)c2ccc(Cl)cc2)cc1	-6
Cc1onc(-c2ccccc2)c1C(=O)NNC(=O)c1ccccc1	-3
Cc1ccc(NC(=O)COC(=O)c2ccc(CN3CCCC3=O)cc2)c(Cl)c1	2
O=C(COC(=O)C12CC3CC(CC(O)(C3)C1)C2)Nc1ccc(Cl)cc1F	-1
CC1CCC2(CC1)NC(=O)N(CC(=O)NC1CCCCC1C)C2=O (stereo not drawn)	2
NC(=O)c1ccc(NC(=O)CN2CCN(S(=O)(=O)c3ccc4ccccc4c3)CC2)cc1	0
O=C(NCCCN1CCCC1=O)c1ccc(NS(=O)(=O)c2ccc(F)cc2)cc1	-2
COc1ccccc1NC(=O)c1ccc(S(=O)(=O)N(C)c2ccccc2)cc1	-8
COc1ccccc1-n1c(SCC(=O)NC2CC2)nc2ccccc2c1=O	3
C=CCCC(=O)N1CCC(n2nccc2NC(=O)c2ccccc2C)CC1	?
O=C(N/N=C/c1cccnc1)c1ccc(NC(=O)c2cccc(Cl)c2)cc1	2
O=C(CCc1ccccc1)N/N=C\C1CC=CCC1 (stereo not drawn)	?
CS(=O)(=O)c1ccc(Cl)c(NC(=O)CSc2nnc(C3CC3)n2C2CC2)c1	0
O=C(Nc1ccc2c(c1)OCCO2)c1ccc(Br)cc1	-4
O=C(CN1CCOCC1)N/N=C/c1c(O)ccc2ccccc12	6
Cc1cc(C(=O)N2CCCC(N3CCN(c4cccc(Cl)c4)CC3)C2)no1 (stereo not drawn)	?
CCOc1ncccc1C(=O)OCC(=O)c1ccc(Br)s1	21
CC(C(=O)N1CCc2ccccc21)N(C)CC(=O)Nc1ccc(F)cc1 (stereo not drawn)	-3
Cc1c(NS(=O)(=O)c2cc(C(=O)N(C)Cc3ccccc3)ccc2Cl)c(=O)n(-c2ccccc2)n1C	-6
COc1ccc(NC(=O)CSc2nc(N)cc(N)n2)cc1S(=O)(=O)N1CCCCC1	-2
C=CCC[C@H](Cc1ccc(F)cc1)C(=O)OC[C@@H](NC(=O)[C@@H](CC=C)CC(=O)N[C@@H](CO)Cc1ccccc1)C(C)(C)C	-3
COc1cc(OC)cc(-c2sc3ccc(OC)cc3c2C#CC2(N)CCCCC2)c1	100
Cc1ccc(/C=C/S(=O)(=O)NCCC(=O)NCc2ccccc2F)cc1	-14
Cc1noc(C)c1S(=O)(=O)N(C)C[C@H]1Oc2ccc(NS(=O)(=O)c3ccc(F)cc3)cc2C(=O)N([C@H](C)CO)C[C@@H]1C	4
Cn1c(N)c(C(=O)COC(=O)/C=C/c2ccccc2)c(=O)n(C)c1=O	-8
CN(c1ccccc1)S(=O)(=O)c1ccc2c(c1)OCCO2	-8
COC(=O)C1=C(c2ccc(F)cc2OCc2ccccc2)C[C@@H]2CC[C@H]1N2C(=O)NCc1ccc(OC)cc1	-4
O=C(Nc1ccc(C(F)(F)F)cc1)c1cccc(-n2cnnn2)c1	-10
O=C(CN1C(=O)NC2(CCCCCCC2)C1=O)Nc1ccc(Cl)cc1	-1
O=C(COC(=O)/C=C/c1cccc(Br)c1)NCc1cccs1	2
CC(C)[C@@H]1CN=C(N)N1C[C@@H]1CCCN1C[C@H](C)N1C[C@@H](Cc2ccccc2)N(CCc2ccc(Cl)c(Cl)c2)C1=N	100
CC1(C)C[C@H](O)[C@]2(CO)CC[C@]3(C)C(=CCC4[C@@]5(C)CC[C@H](O)C(C)(C)C5CC[C@]43C)[C@@H]2C1 (stereo partly drawn)	2
COc1cccc(COC(=O)Cc2ccc(S(=O)(=O)N3CCOCC3)s2)c1OC	1
COc1ccc(S(=O)(=O)Nc2cccc3c2O[C@H](CN(C)Cc2ccc(C(=O)O)cc2)[C@@H](C)CN([C@H](C)CO)C3=O)cc1	3
COc1ccccc1CNC(=O)C1CCN(S(=O)(=O)c2cccc3nonc23)CC1	0
COc1cc(C(C)=O)ccc1OCC(=O)OC(C)C(=O)c1ccc(F)cc1 (stereo not drawn)	0
CCCN1C(=O)C(=O)N(CC(=O)c2cc(C)n(C3CC3)c2C)C1=O	-9
Cn1cc(S(=O)(=O)N2CCN(c3cccc(Cl)c3)CC2)c(=O)n(C)c1=O	-1
C/C=C(\C)C(=O)OC(C)(C)[C@@H]1Cc2cc3ccc(=O)oc3cc2O1	-2
CCOc1ccc(N2C(=O)C3C(c4ccc(OC)cc4OC)NC(CCSC)(C(=O)OC)C3C2=O)cc1 (stereo not drawn)	-3
Cc1ccc(S(=O)(=O)Nc2ccc3nc(C)sc3c2)c(C)c1	9
CC1(C)C(=O)Nc2ccccc2N1C(=O)COC(=O)Cc1ccccc1F	-6
COc1ccc2cc(-c3ccccc3F)ncc2c1	66
Cc1nn(-c2ccccc2)c(C)c1NC(=O)COc1cc(F)ccc1[N+](=O)[O-]	-6
COc1ccccc1OCCNC(=O)C(CCSC)NC(=O)COc1ccccc1 (stereo not drawn)	1
c1cnc2ccc(-c3ccc4ncccc4c3)cc2c1	79
Cc1cccc(OCCOC(=O)c2ccc(F)c(S(=O)(=O)N3CCOCC3)c2)c1	2
CCCNC(=O)c1onc(CS(=O)(=O)c2cc(C)cc(C)c2)c1C(=O)NCCC	-3
COc1ccc(-c2c3c(cc4ncn(Cc5ccccc5)c24)COC3=O)cc1	-6
CC1CC(C)CN(S(=O)(=O)c2ccc3c(c2)CC(=O)N3)C1 (stereo not drawn)	0
O=C(NCCOc1ccccc1)c1ccccc1SCC(=O)N1CCCC1	-4
CC(C)Oc1ccc(C(=O)Nc2cccc(S(=O)(=O)N3CCCC3)c2)cc1	5
COc1ccc(C(=O)Nc2ccccc2NC(=O)c2ccc(OC)cc2)cc1	-3
O=C(Nc1ccc(NS(=O)(=O)c2ccccc2)cc1)c1ccccc1Cl	-4
CCOc1ccc(NC(=O)CN2C(=O)NC3(CCCC3)C2=O)cc1S(=O)(=O)N1CCCCC1	-8
CCOc1ccccc1N1CCN(C(=O)C2=CC=CN3CCS(=O)(=O)N=C23)CC1	-4
Cc1cccc(NC(=O)COC(=O)C2COc3ccccc3O2)c1C (stereo not drawn)	5
Cc1ccc(NC(=O)COC(=O)CCc2c(C)nc3ncnn3c2C)cc1	-1

Looked up by compound from the list above (5):
smiles	Mtb bLac sens
Cc1cccc(OCCOC(=O)c2ccc(F)c(S(=O)(=O)N3CCOCC3)c2)c1	2
Cc1cccc(NC(=O)COC(=O)C2COc3ccccc3O2)c1C (stereo not drawn)	5
COc1ccc(-c2c3c(cc4ncn(Cc5ccccc5)c24)COC3=O)cc1	-6
O=C(NCCOc1ccccc1)c1ccccc1SCC(=O)N1CCCC1	-4
CCOc1ccccc1N1CCN(C(=O)C2=CC=CN3CCS(=O)(=O)N=C23)CC1	-4

Continued.
smiles	Mtb bLac sens
COc1ccccc1NS(=O)(=O)c1ccc(C(=O)N2CCN(c3ccccc3)CC2)cc1	-11
Nc1nnc(/C=C/c2cccc([N+](=O)[O-])c2)s1	-2
Cc1ccc(S(=O)(=O)N2CCN(C(=O)COC(=O)CCc3ccccc3)CC2)c(C)c1	0
COc1ccc(CCC(=O)Nc2nnc(C)s2)cc1	8
CCOc1ccc(/C=N/NC(=O)c2ccc(O)cc2)cc1CN1CC2CC(C1)c1cccc(=O)n1C2 (stereo not drawn)	12
CCCCNc1c(-c2ccc(-c3cccc(Cl)c3)cc2)nc2ccc(Cl)cn12	-12
CC(C(=O)Nc1ccc(N2CCOCC2)cc1)N1C(=O)NC(C)(C)C1=O (stereo not drawn)	-8
O=C(c1ccc2c(c1)OCCO2)N1CCN(Cc2c(F)cccc2Cl)CC1	-1
Cc1cc(C)cc(C(=O)Nc2cccnc2)c1	-7
NC(=O)NC(CC(=O)NNC(=O)c1ccccn1)c1ccccc1Cl (stereo not drawn)	-2
CCOC(=O)C1CCN(C(=O)COc2ccc(C(=O)c3ccccc3)cc2)CC1	-2
Cc1ccc(CNC(=O)CC(NC(=O)c2ccccc2)c2ccccc2)cc1 (stereo not drawn)	-1
Cc1cc(C(=O)COC(=O)c2cccc(NS(C)(=O)=O)c2)c(C)n1CC1CCCO1 (stereo not drawn)	5
Cc1ccc(S(N)(=O)=O)cc1	7
Cn1nccc1C(=O)OCC(=O)Nc1cccc(Cl)c1	-10
CCc1noc(C)c1C(=O)Oc1ccc(N(C)S(=O)(=O)c2ccc(C)cc2)cc1	2
CC(C(=O)NC1CCCc2ccccc21)N1C(=O)C2CCCCC2C1=O (stereo not drawn)	4
Cc1ccc(S(=O)(=O)NC2CC(C)(C)N(O)C(C)(C)C2)cc1	0
Cc1ccccc1-c1nnc(CN2CCN(C(=O)c3ccco3)CC2)o1	9
Cn1ncc(Br)c1C(=O)NC1CCCCC1	6
CCC(=O)N1N=C(c2ccc(NS(=O)(=O)c3ccccc3)cc2)CC1c1ccco1 (stereo not drawn)	2
CC(=O)Nc1sc(C)c(C)c1C(=O)OCC(=O)NCc1ccc(F)cc1	0
O=C(NCC1CCCO1)c1cc([N+](=O)[O-])ccc1N1CCC(Cc2ccccc2)CC1 (stereo not drawn)	62
Cc1cc(C(=O)CN2C(=O)NC(CCS(C)(=O)=O)C2=O)c(C)n1C1CC1 (stereo not drawn)	2
CC(NC(=O)COC(=O)COc1ccc(C(=O)c2ccccc2)cc1)c1ccccc1 (stereo not drawn)	0
COc1ccccc1CNC(=O)COC(=O)c1cccc(-n2cnnn2)c1	0
Cc1ccc(S(=O)(=O)Nc2ccc(-n3cnnn3)cc2)c(C)c1	-10
Fc1cccc(CNc2ncnc3ccc(-c4ccc5c(c4)OCO5)cc23)c1	92
COc1ccc(NC(=O)CN2C(=O)C(=O)N(C3CCCC3)C2=O)c(OC)c1	2
O=C(N/N=C/c1cc(Cl)cc([N+](=O)[O-])c1O)c1ccc2c(c1)OCO2	-1
O=C(COc1ccccc1F)NNC(=O)c1ccc(F)c(S(=O)(=O)N2CCOCC2)c1	-8
COCc1c(C(=O)N2CCN(c3ccccc3C)CC2)oc2ccccc12	-1
C[C@H](NC(=O)C1(c2ccccc2)CCN(C(=O)OC(C)(C)C)CC1)C(=O)N[C@@H](C(=O)O)c1ccccc1	-6
O=C(CN1CCN(Cc2ccccc2)CC1)NNC(=O)c1ccccc1	0
COc1ccc(C(CNC(=O)c2cc(S(=O)(=O)NCc3ccco3)ccc2C)N(C)C)cc1 (stereo not drawn)	-5
CCCCN1C(=N)N([C@@H](C)CN2CCC[C@H]2CN2C(N)=NC[C@H]2CC(C)C)C[C@H]1Cc1ccccc1	0
O=C(Nc1ccc(NC(=S)NC(=O)c2ccco2)cc1)c1ccccc1	38
COc1cccc(CNc2ncnc3ccc(-c4c(C)noc4C)cc23)c1	-4
Cc1ccc(C)c(S(=O)(=O)N2CCN(C(=O)[C@H](C)N3C(=O)C4CC=CCC4C3=O)CC2)c1 (stereo partly drawn)	-8
CCN1C[C@]2(COC)CC[C@H](OC)[C@@]34C1[C@]1(OCO[C@@]15C[C@H](OC)[C@H]1C[C@@H]3[C@@H]5[C@H]1OC)[C@@H](O)[C@H]24	2
Cc1cc(=O)n(-c2ccccc2)n1C	-3
CC(=O)Nc1ccc(OCC(=O)Nc2ccc(Cl)c(S(=O)(=O)N3CCOCC3)c2)cc1	18
C=CC[C@@H](CC(=O)N(CCO)Cc1ccccc1)C(=O)N[C@H](COC(=O)[C@@H](CC=C)CC(=O)OC(C)(C)C)Cc1ccccc1	-6
CC[C@@]1(C(=O)OC)N[C@H](CN(C)C(C)=O)[C@@H]2C(=O)N(Cc3ccccc3)C(=O)[C@@H]21	1
CC(=O)N/C(=C\c1ccccc1)C(=O)OCC(=O)Nc1ccc(C)c(S(=O)(=O)N(C)C)c1	-1
C=C[C@@H]1c2c(F)cccc2N(S(=O)(=O)c2ccc(C)cc2)[C@H](c2ccc(C(=O)OC)cc2)C1(C#N)C#N	-6
CC(C)NC(=O)N(C)C[C@H]1Oc2ccc(NC(=O)Nc3ccccc3)cc2C(=O)N([C@@H](C)CO)C[C@@H]1C	2
O=C(CNC(=O)c1ccccc1F)NC1CCN(Cc2ccccc2)CC1	-6
C=CCOc1c(Cl)cc(CNCCCN2CCOCC2)cc1OC	-5
Cc1ccccc1NC(=O)C(C)N1C(=O)c2ccccc2C1=O (stereo not drawn)	0
Cn1c(N)c(N2CCCCC2)c(=O)n(CC(=O)Nc2cccc(C#N)c2)c1=O	0
N#Cc1ccc(NC(=O)COc2ccc(-n3cnnn3)cc2)cc1	-1
CC(=O)Nc1ccc(N/C=C/C(=O)c2ccc(C)cc2)cc1	9
C=CCn1c(SCC(=O)Nc2ccc(NC(C)=O)cc2)nc2sc(C)c(C)c2c1=O	-4
NC(=O)c1ccsc1NC(=O)COC(=O)CNC(=O)c1ccc(F)cc1	-2

Only part of the results is shown. The share of hits here may be higher or lower than overall.
